Sa ugtP lethal: kills S. aureus RN4220 lacking UgtP. growth inhibition, % (test concentration not listed). S. aureus RN4220 ugtP deletion, OD600 growth, 16 h; some inactives read as strong as hits. actives 0.54% (n = 330,000). AID 1259309;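 active means z-score under -3 and OD600 up to 0.15 on both plates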;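 further: plate controls were untreated wells for no effect and antibiotic for full effect; wells of about 80 µL received 100 nL stock; the first replicate is given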
Autofluor counter: flagged as autofluorescent in microsphere protease counterscreen; compound autofluorescence counterscreen, microsphere flow cytometry; active compounds read high; fluorescence intensity (concentration not given with the values); actives 3.1% (n = 360,000);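 active means at least 3 SD above the mean of all compounds, about 16000 in these data; inconclusive means too few beads counted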;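 further: 100 nL of 1 mM stock went into each well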
Mtb hypoxia inh: reduces hypoxia-regulated biosensor signal in M. tuberculosis | actives 0.1% (n = 300,000) | AID 1159583 | fluorescence inhibition, % (test concentration not listed) | M. tuberculosis hypoxia-regulated fluorescent reporter, fluorescence;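 active means 35 to 45% if threefold the growth effect, above 45% if 1.5-fold the growth effect; inactive means the rest, general growth blockers included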;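 further: wells of about 50 µL received 100 nL stock; 0% = vehicle wells and 100% = reference inhibitor wells; whole bacteria with a GFP reporter of the hypoxia response; strong numbers were not always called active; many hits fall short of the cut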
PrP UTR inh: inhibition of PrP 5' UTR reporter expression | actives 0.35% (n = 340,000) | cell-based PrP 5' UTR mRNA reporter, plate reader | inhibition, % (no concentration beside the values);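 active means every replicate at 50% or more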;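 further: 0 = median of the neutral control wells; tested in H4 reporter cells; numbers are from one replicate; inactives centre near -14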
RN4220 kill: kills Staphylococcus aureus RN4220; S. aureus RN4220 growth, OD600, 16 h; inhibition, % (test concentration not listed); actives 0.33% (n = 330,000);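 active means z-score of -3 or lower and OD600 up to 0.18 on both plates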;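 further: plate controls were untreated cells for no effect and reference antibiotic for full effect; stock transfer was 100 nL into about 80 µL; one replicate is shown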
BJeLR lethal: kills HRASV12-expressing BJeLR cells | BJeLR (HRASV12) viability, CellTiter-Glo ATP luminescence, 48 h; reference of the scale not given here | inhibition, % (concentration not given with the values) | actives 0.17% (n = 300,000);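 active means replicate mean above 50%; inconclusive means above 50% but judged a plate artefact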;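 further: 50 nL library stock added to about 25 µL; numbers are from one replicate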
Mtb hypoxia inh growth: recorded beside Mtb hypoxia inh, whose call it bears; growth inhibition, %; measured here: M. tuberculosis growth (absorbance);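 0% = vehicle and 100% = reference antibiotic; read after six days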
Numbers without * were called inactive; ? = inconclusive; . = no result given.

SMILES | Sa ugtP lethal | Autofluor counter | Mtb hypoxia inh | Mtb hypoxia inh growth | PrP UTR inh | RN4220 kill | BJeLR lethal
CCOC(=O)C1=C(C)OC(N)=C(C#N)C1c1c(C)nn(-c2ccccc2)c1Cl (stereo not drawn) | -3 | 4188 | -15 | -8 | -8 | 1.5 | 1
CCOC(=O)N1CCc2c(sc3nc4n(c(=O)c23)N=C(C)CS4)C1 | 5 | 2136 | 8 | 6 | -5 | -3.1 | -1
Cc1onc(-c2ccccc2Cl)c1C(=O)N1CCCC1 | -3 | 5313 | 5 | 12 | -19 | -1.1 | -3
O=C(c1ccc(S(=O)(=O)N2CCCC2)cc1)N1CCN(c2ccccc2F)CC1 | 1 | 5064 | 3 | 2 | -6 | 2.2 | 5
CCC(=O)c1ccc(OCC(=O)OC(C)C(=O)Nc2c(C)n(C)n(-c3ccccc3)c2=O)cc1 (stereo not drawn) | 5 | 5715 | 4 | -2 | -32 | 3.7 | .
CCCCOc1ccc(S(=O)(=O)NCc2csc(C)n2)cc1 | 3 | 10746 | 5 | 5 | -3 | 7.6 | 7
O=C(Nc1ccc(N2CCOCC2)cc1)C1CC(=O)N(c2ccc(F)cc2)C1 (stereo not drawn) | 0 | 3853 | 12 | -2 | -17 | 1.0 | -1
O=C(Nc1ccncc1)c1cccc(F)c1 | 4 | 3614 | 12 | 0 | 6 | 1.8 | 1
CC(NC(=O)C1CCCCC1)C(c1cccs1)N1CCN(C)CC1 (stereo not drawn) | -1 | 4533 | 7 | 9 | -9 | -13 | 1
Cc1occc1C(=O)N1CCN(c2ccccc2)CC1 | -3 | 7574 | 8 | 9 | -15 | 5.5 | -11
Cc1ccccc1NC(=O)NCCCN1CCN(C)CC1 | 4 | 4018 | 3 | 2 | -9 | 0.9 | 0
COc1ccc(CCNS(=O)(=O)c2cccc([N+](=O)[O-])c2)cc1 | -1 | 3516 | -1 | -2 | 17 | -0.4 | -11
C[C@H](NC(=O)c1nc[nH]c1C(=O)N1CCNCC1)C(=O)OCc1ccccc1 | -7 | 3930 | -4 | 7 | -10 | -13 | 0
N#Cc1ccc(NC(=O)Cn2cnc(S(=O)(=O)N3CCCCC3)c2)cc1 | 11 | 4273 | 3 | 1 | -6 | 0.6 | 12
COc1cc2c(cc1NC(=O)CN(C)Cc1nc3ccccc3c(=O)[nH]1)oc1ccccc12 | -13 | 9719 | 6 | -5 | -13 | 6.5 | -16

Full records as entered above:
Shown for CC(NC(=O)C1CCCCC1)C(c1cccs1)N1CCN(C)CC1 (stereo not drawn) → Sa ugtP lethal: -1; Autofluor counter: 4533; Mtb hypoxia inh: 7; Mtb hypoxia inh growth: 9; PrP UTR inh: -9; RN4220 kill: -13; BJeLR lethal: 1
Shown for COc1ccc(CCNS(=O)(=O)c2cccc([N+](=O)[O-])c2)cc1 → Sa ugtP lethal: -1; Autofluor counter: 3516; Mtb hypoxia inh: -1; Mtb hypoxia inh growth: -2; PrP UTR inh: 17; RN4220 kill: -0.4; BJeLR lethal: -11

Next structures follow:
SMILES | Sa ugtP lethal | Autofluor counter | Mtb hypoxia inh | Mtb hypoxia inh growth | PrP UTR inh | RN4220 kill | BJeLR lethal
CC(C)(C)c1ccc(Cn2nnc3c(=O)[nH]c(C4CCCN(C(=O)c5ccco5)C4)nc32)cc1 (stereo not drawn) | 12 | 3502 | 7 | 7 | -28 | -2.1 | 8
CCOC(=O)c1c(S(=O)(=O)N2CCCCC2C)c(C)n(C)c1C (stereo not drawn) | 1 | 4808 | 14 | 4 | -6 | 4.9 | 10
COc1ccccc1NC(=O)CN1C(=O)C(C)SC(C)C1=O (stereo not drawn) | 4 | 1995 | -1 | -5 | 7 | 6.3 | -2
CCOCCOCN(C#N)c1nc(OC)nc(N(C)C)n1 | 1 | 2952 | 11 | 12 | -11 | 0.9 | -4
COc1ccccc1-c1nc(SCC(=O)Nc2ccccc2F)n[nH]1 | 0 | 6190 | 4 | 8 | -3 | 3.1 | -5
Cc1ccc(N(C(=O)C2CCCC2)C2C=CS(=O)(=O)C2)cc1 (stereo not drawn) | 3 | 4836 | . | . | -12 | 2.1 | 16
Cc1ccc2nc(SCC(=O)NCc3ccccc3Cl)nc(=O)n2c1 | 7 | 5240 | -5 | -4 | -14 | -1.1 | -4
COc1ccc(-c2coc3c(CN4CCCCC4C)c(O)ccc3c2=O)cc1 (stereo not drawn) | 14 | 4158 | 14 | -2 | -27 | 3.1 | 0
Cc1ccc(CN2C(=O)CSc3ccc(C(=O)NCCN4CCOCC4)cc32)cc1 | -7 | 2206 | . | . | -3 | 4.5 | 0
CCOC(=O)C1CCN(C(=O)Cn2cc(C(=O)c3ccco3)c3ccccc32)CC1 | -1 | 11178 | 11 | 16 | -38 | 4.2 | -3
Cc1ccc(OCC(=O)N/N=C\c2cn(C)c3ccccc23)c([N+](=O)[O-])c1 | . | 3403 | . | . | -8 | . | -13
COc1cccc2sc(Nc3nnc(-c4ccc(F)cc4)o3)nc12 | 11 | 5193 | -4 | 3 | -36 | 5.8 | 4
CC(=O)C1=C(c2ccccc2)NC(=S)NC1c1cc(Cl)c(OC(C)C)c(Cl)c1 (stereo not drawn) | 13 | 2164 | 0 | 1 | -15 | 6.1 | -5
O=c1c2cn[nH]c2nc(SCc2cc(=O)n3cc(Br)ccc3n2)n1-c1ccc(Br)cc1 | -5 | 3252 | -18 | 3 | -14 | 4.1 | 3
O=c1c2cc3c(cc2[nH]c(=S)n1CCN1CCOCC1)OCO3 | -9 | 6016 | 10 | 8 | -26 | 8.0 | -2
CCn1c(=O)n(Cc2ccco2)c(=N)c2c3c(sc21)COC(C)(C)C3 | 2 | 11454 | 0 | 3 | 8 | 1.9 | 5
COc1ccccc1NC(=O)CN1CCOCC1 | 5 | 3962 | -6 | 0 | -18 | 5.5 | 2
CC(=O)c1cccc(NC(=O)COC(=O)COc2c(Cl)cc(Cl)c3ccc(C)nc23)c1 | -2 | 3072 | 18 | 0 | -20 | 6.3 | -8
COc1ccc2c(c1)C1C(CO2)C(c2ccccc2)[C@]2(C)C(=O)NC(C)C(=O)N12 (stereo partly drawn) | -5 | . | 0 | 2 | . | 1.6 | .
O=C(CNC(=O)c1ccc(Cl)cc1Cl)OCc1nnc(-c2ccccc2)o1 | 2 | ? | 12 | 3 | -55 | 4.0 | 8
Cc1ccc(-c2nc(C3CCN(S(C)(=O)=O)CC3)no2)cc1 | -8 | 3396 | 4 | 12 | -33 | 1.7 | -5
CCNC(=S)NNC(=O)c1cc(C)on1 | 0 | 21335* | -4 | 3 | -18 | 0.5 | 5
CC(=O)Nc1ccc(OS(=O)(=O)c2ccccc2C)cc1 | 5 | 4235 | 17 | 6 | -27 | 11 | 1
COc1cccc(COC(=O)C2CCN(S(=O)(=O)c3ccc(C)cc3C)CC2)c1OC | 17 | 4649 | 8 | 7 | -15 | -1.1 | -6
N#CCSc1ccccc1NC(=O)COC(=O)Cc1c[nH]c2ccccc12 | 3 | 8949 | -5 | 15 | -19 | 3.4 | .
Cc1c(NC(=O)C(c2ccccc2)c2ccccc2)cccc1C(=O)O | 7 | 3900 | 5 | -8 | -15 | 0.3 | -8
O=C(CCc1ccccc1)N1C[C@H]2C[C@@H](C1)c1cccc(=O)n1C2 | -8 | 4913 | . | . | -13 | 5.0 | -2
Cc1ccc(S(=O)(=O)NC(CCCCN)C(=O)CCl)cc1 (stereo not drawn) | 5 | . | 2 | 4 | . | 0.7 | .
CN(C)S(=O)(=O)c1cccc(NC(=O)CCSc2ccc(Cl)cc2)c1 | -11 | 2542 | 13 | 10 | -6 | 4.4 | -10
Cc1cc(C)n(-c2nc(NCCC(C)C)c3c4c(sc3n2)COC(C)(C)C4)n1 | . | 19196* | . | . | -9 | . | -14

Looked up by structure from the entries so far, 2 records:
SMILES | Sa ugtP lethal | Autofluor counter | Mtb hypoxia inh | Mtb hypoxia inh growth | PrP UTR inh | RN4220 kill | BJeLR lethal
COc1cccc(COC(=O)C2CCN(S(=O)(=O)c3ccc(C)cc3C)CC2)c1OC | 17 | 4649 | 8 | 7 | -15 | -1.1 | -6
N#CCSc1ccccc1NC(=O)COC(=O)Cc1c[nH]c2ccccc12 | 3 | 8949 | -5 | 15 | -19 | 3.4 | .

Further compounds follow:
SMILES | Sa ugtP lethal | Autofluor counter | Mtb hypoxia inh | Mtb hypoxia inh growth | PrP UTR inh | RN4220 kill | BJeLR lethal
Cc1occc1C(=O)NNC(=S)Nc1ccccc1 | 3 | 14816 | 7 | 4 | -34 | 5.9 | -7
O=C1C(Cl)=C(N2CCOCC2)C(=O)N1c1ccccc1 | -2 | 5717 | 0 | 0 | -23 | 4.8 | -1
CS(=O)(=O)NC1CCN(Cc2ccccc2)CC1 | 12 | 22396* | 3 | -2 | -22 | 3.9 | 8
NS(=O)(=O)c1ccc(NS(=O)(=O)c2ccc(Br)cc2)cc1 | 3 | 4682 | -8 | -2 | -21 | 4.0 | -5
O=C1c2cccc3cccc(c23)C(=O)N1c1ccc(O)cc1 | -1 | 3806 | 11 | 5 | -7 | 0.6 | -19
O=C(CSc1ccc2c(c1)OCCO2)NCC1CCCO1 (stereo not drawn) | 10 | 9961 | 6 | -2 | -13 | 1.7 | -3
CCc1ccccc1OCC(=O)NC1CCCC1 | -1 | 23047* | 14 | 1 | -9 | 1.7 | 2
Cc1ccc(C(=O)Nc2ccc(O)c(C(=O)O)c2)o1 | 10 | 4380 | 7 | 4 | -25 | 4.4 | -15
CNC(=O)c1cc(S(=O)(=O)Nc2ccc3c(c2)OCCO3)ccc1C | 6 | 4291 | 6 | -3 | -42 | 4.0 | 10
CC(C)CNC(=O)CC(NCC(C)C)C(=O)O (stereo not drawn) | -1 | . | 9 | 5 | . | 4.7 | -3
COc1ccc(NS(=O)(=O)c2cc(C(=O)N3CCC3)ccc2C)cc1 | 3 | 4137 | 11 | 16 | -30 | 2.9 | .
COc1c2c(cc3c1OCO3)CCN(C)C2 | -7 | 6057 | 6 | 0 | -13 | 2.2 | .
Nc1c(C(=O)c2ccc(Cl)cc2)sc2c1c(=O)[nH]c(=O)n2-c1ccccc1 | 1 | 6839 | -2 | -3 | -11 | -5.5 | 11
COc1cc(C=NNC(=O)C(Cc2c[nH]c3ccccc23)NC(=O)OCC(C)C)cc([N+](=O)[O-])c1OCc1ccccc1 (stereo not drawn) | 8 | . | 3 | 13 | . | -0.7 | .
O=C(NCC1CCCO1)c1sc2ccccc2c1Cl (stereo not drawn) | 1 | 7501 | 12 | 12 | -83 | 2.6 | 12
CCc1nc2ccccc2c(C(=O)OC2CCOC2=O)c1C (stereo not drawn) | -4 | 4247 | 5 | 7 | -17 | 3.3 | -5
CCC1CCC2(CC1)NC(=O)N(CC(=O)N1CCc3ccccc31)C2=O (stereo not drawn) | 9 | 2970 | 1 | 4 | -16 | 4.1 | .
CCCn1c(=O)c2ccccc2n2c(SC(C)C(N)=O)nnc12 (stereo not drawn) | 2 | 3376 | 14 | -5 | -31 | 2.4 | -6
Clc1ccc(SCc2cn3cccnc3n2)cc1 | 5 | 10415 | 7 | 11 | -24 | 4.3 | -2
O=C(O)C1Cc2ccccc2CN1S(=O)(=O)c1ccc2ccccc2c1 (stereo not drawn) | 1 | 5080 | . | . | -12 | 3.0 | -1
CN=c1scc(C)n1N=Cc1cc(Br)c(O)c(OC)c1 | 4 | . | 13 | 13 | . | -0.4 | .
CCOc1ccc(NC(=O)C2CCN(C(=O)N3CCOc4ccccc43)CC2)cc1 | 0 | 4434 | 12 | 8 | -6 | -9.3 | -1
O=S(=O)(NCC1CCCO1)c1ccc(S(=O)(=O)N2CCc3ccccc3C2)cc1 (stereo not drawn) | -1 | 8574 | 5 | 6 | -11 | 3.3 | 1
O=C(NCCCNC(=O)c1ccc(-c2cccc(Cl)c2)o1)c1cnccn1 | 5 | 3617 | -7 | 2 | -17 | -2.0 | 8
c1ccc(Nc2nc(-c3ccccc3)ns2)cc1 | -10 | 4113 | -4 | -4 | -190 | -4.9 | -7
COc1ccc(-c2[nH]ncc2CNC(C)Cc2ccsc2)c(F)c1 (stereo not drawn) | 11 | 2705 | 14 | -1 | -20 | 4.1 | 0
COc1cccc(CN2CCN(C(=O)c3cc(-c4ccccn4)nc4ccc(Cl)cc34)CC2)c1 | -63 | 5023 | -1 | 8 | 1 | 11 | 1
CCN(CC)S(=O)(=O)c1ccc(Nc2nc3ccccc3n3nnnc23)cc1 | -9 | 3057 | . | . | -38 | 0.9 | 0

High-throughput results as filed in PubChem BioAssay.

Not a hit list; any-hit rate near 4%.
